High-throughput results deposited in PubChem BioAssay by several laboratories.
LANA-H2B inh – blockers of LANA interaction with H2A/H2B – biochemical, FP readout, HTS, primary screen; Protein LANA1 (Human herpesvirus 8 type P (isolate GK18)), Q9QR71; cell-free LANA-H2A/H2B peptide, fluorescence polarization; inhibition, % (concentration not given with the values); 0.6% of 320,000 active; AID 2629, 2010; in the data active = inhibition mostly above about 10%, no sharp cut-off; inactive = mostly below about 6.7%;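 also: stock transfer was 7.5 nL into about 10 µL; 0% = median of vehicle wells and 100% = median of positive control wells; one replicate is shown; the record names a cut of 25% in any replicate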
RanGTP-Imp inh – inhibitors of RanGTP-importin-beta interaction, primary screen, biochemical, FRET, CFP-Ran, YFP-importin-beta, homogeneous; 1.1% of 300,000 active; inhibition, % (no concentration beside the values); Ran GTPase (GTP-bound) - importin-beta complex; cell-free CFP-Ran/YFP-importin-beta FRET ratio;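 active = most replicates above 15%; inconclusive = exactly half above 15%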;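 also: 0% = DMSO wells and 100% = Ran loaded with GDP instead of GTP; wells of about 40 µL received 100 nL stock; the first replicate is given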
B2AR ag – beta2AR agonists driving receptor internalization, primary screen, cell-based, FAP fluorogen, flow cytometry; response, % (test concentration not listed); Am2.2-beta2AR cells; reference of the scale not given here; AID 504454, 2011; Beta-2 adrenergic receptor (Homo sapiens), P07550; 0.43% of 340,000 active;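 active = response above a set limit, near 3 SD of response in nonfluorescent compounds, cut at about 42% in these data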;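 also: stock transfer was 100 nL into about 11 µL; a reference agonist was the positive control; negative values mostly stem from fluorescent compounds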
Target sequence (P07550 whole entry, looked up): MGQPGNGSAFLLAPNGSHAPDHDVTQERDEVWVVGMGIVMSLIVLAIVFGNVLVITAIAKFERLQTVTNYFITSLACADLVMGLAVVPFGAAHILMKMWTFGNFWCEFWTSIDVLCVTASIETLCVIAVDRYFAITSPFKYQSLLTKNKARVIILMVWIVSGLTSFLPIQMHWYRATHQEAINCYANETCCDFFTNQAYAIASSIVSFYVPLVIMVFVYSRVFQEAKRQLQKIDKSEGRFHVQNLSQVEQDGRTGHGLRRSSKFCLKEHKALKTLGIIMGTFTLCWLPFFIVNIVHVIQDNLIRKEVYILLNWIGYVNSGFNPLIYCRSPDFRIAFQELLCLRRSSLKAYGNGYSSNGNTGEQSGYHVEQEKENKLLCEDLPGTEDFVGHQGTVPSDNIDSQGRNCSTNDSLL
ALR inh – inhibitors of human ALR sulfhydryl oxidase, primary screen, biochemical, H2O2 detection, HRP-luminol luminescence, single point; FAD-linked sulfhydryl oxidase ALR (Homo sapiens), P55789; purified ALR, DTT oxidation; inhibition, % (concentration not given with the values); 3.8% of 290,000 active; AID 485317, 2010;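 active = mean and each replicate at 75% or more; inconclusive = only one of the two met; inactive = neither met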;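 also: stock transfer was 7.5 nL into about 7.5 µL; 0% = neutral wells and 100% = wells with inactivated enzyme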
Target sequence (P55789 whole entry, looked up): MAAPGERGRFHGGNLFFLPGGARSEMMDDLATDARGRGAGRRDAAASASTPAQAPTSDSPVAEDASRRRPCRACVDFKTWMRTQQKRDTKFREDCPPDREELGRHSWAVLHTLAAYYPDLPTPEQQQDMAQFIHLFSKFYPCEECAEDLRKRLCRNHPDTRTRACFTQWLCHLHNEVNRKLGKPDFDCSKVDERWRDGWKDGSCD
Calb FLC – C. albicans growth inhibition with fluconazole, primary screen, CaCi-2 strain, Alamar Blue fluorescence; growth inhibition, % (test concentration not listed); C. albicans CaCi-2 (fluconazole-resistant clinical isolate) + fluconazole, 48 h; 0.57% of 300,000 active; AID 1979, 2009;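 active = most replicates above 75%; inconclusive = exactly half above 75%; inactive = most below 75%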;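 also: all wells also contain fluconazole at 8 µg/ml as a sub-toxic cotreatment; 0% = median of DMSO wells and 100% = median of geldanamycin control wells; wells of about 8 µL received 7.5 nL stock; the first replicate is given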
HNF4A DNA FP – change in binding of human HNF4A to DNA, primary screen, biochemical, fluorescence polarization, FITC-DNA | activity change, % at 10 µM | 0.3% of 360,000 active | 1 h; in the data active = activity change above about 30%, passing the limit was not always enough;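 also: controls were the assay level and a saturating level of protein; the project sought stronger binding though the title names inhibitors; some compounds called inactive have numbers as strong as hits; positive values seem to mean higher polarization but the record does not say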
Target sequence (P41235 whole entry, looked up): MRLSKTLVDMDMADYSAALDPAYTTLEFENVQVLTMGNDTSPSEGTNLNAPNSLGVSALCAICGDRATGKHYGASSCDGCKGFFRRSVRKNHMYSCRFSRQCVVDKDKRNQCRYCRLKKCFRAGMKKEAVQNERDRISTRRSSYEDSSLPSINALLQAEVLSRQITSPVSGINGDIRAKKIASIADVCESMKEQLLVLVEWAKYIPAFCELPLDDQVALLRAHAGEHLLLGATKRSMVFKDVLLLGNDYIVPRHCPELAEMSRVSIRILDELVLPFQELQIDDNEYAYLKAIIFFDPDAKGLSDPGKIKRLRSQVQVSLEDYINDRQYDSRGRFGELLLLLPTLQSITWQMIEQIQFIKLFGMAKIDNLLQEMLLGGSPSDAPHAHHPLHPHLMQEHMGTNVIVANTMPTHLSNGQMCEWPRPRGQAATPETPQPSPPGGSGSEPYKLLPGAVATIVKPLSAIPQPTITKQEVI
Vif A3G – inhibitors of Vif binding to APOBEC3G peptide, primary screen, biochemical, TR-FRET, GST-Vif 1-94, biotin-A3G peptide, dose response retest (AID 1117319); inhibition, %; hits with a dose series show IC50 in µM; 0.57% of 260,000 active; TR-FRET GST-Vif / biotin-A3G peptide binding; higher % means a stronger effect; test concentration not given here; strong numbers were not always called active;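 active = above the screen mean plus three standard deviations and confirmed in dose response; inconclusive = results disagree or hit not tested in dose response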;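 also: Vif residues 1-94 fused to GST binding biotinylated APOBEC3G peptide 110-148; 0% = full assay without inhibitor and 100% = GST in place of GST-Vif; retest series ran down from 100 µM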
* = called active by the depositor; ? = inconclusive; . = no result given; & = joins results of further samples. Rows are unselected. About 6.3% of those tested had a hit in this group.

SMILES | LANA-H2B inh | RanGTP-Imp inh | B2AR ag | ALR inh | Calb FLC | HNF4A DNA FP | Vif A3G
CCOc1ncccc1C(=O)OCc1ccc(C#N)cc1 | 6.2 | 1.0 | 0 | -6 | 8 | -1.4 | 12%
COc1cc(C2CC(=O)c3cnc(N)nc3C2)cc(OC)c1OC (centres undefined) | 2.1 | 0.4 | 5 | -3 | 7 | 1.0 | -1%
COc1cccc(-c2ncc3ccccc3c2COC(=O)c2ccco2)c1 | -3.7 | . | 0 | 1 | . | 2.8 | .
O=C(CN1C(=O)C2(OCCO2)c2ccccc21)c1ccc(Cl)cc1 | -2.7 | -1.1 | -5 | -8 | -26 | 3.3 | 15%
COc1ccc(/C=N/Nc2nc(=O)[nH]nc2C)cc1OC | 0.7 | -0.2 | 1 | -18 | -1 | 2.8 | -2%
CCOC(=O)N1CCN(CC(=O)Nc2c(C(=O)OC)[nH]c3ccc(Cl)cc23)CC1 | 1.4 | -1.4 | 15 | 0 | -1 | -0.6 | -7%
O=C(Nc1ccc2c(c1)OCO2)C(c1ccccc1)N1CCN(C(=O)c2ccco2)CC1 (centres undefined) | 0.9 | -0.4 | -7 | -3 | -11 | 1.4 | ?
c1ccc(Nc2nc(-c3ccncc3)cs2)cc1 | 5.5 | 4.3 | -3 | 1 | 4 | 3.1 | 1%
Nc1ccc(-c2nc3cc(N)ccc3s2)cc1 | -4.9 | . | 6 | 99* | -8 | 4.3 | 3%
COC(=O)C(CCSC)NC(=O)C12CC3CC(CC(C3)C1)C2 (centres undefined) | 3.8 | ? | 1 | -8 | 3 | -1.6 | -2%
O=C(CCN1C(=O)C2CCCCC2C1=O)Nc1ccc(F)c(F)c1F (centres undefined) | 2.2 | 3.1 | -1 | 0 | -2 | 3.0 | .
COc1cc(-c2n[nH]c(=S)n2-c2ccc(Br)cc2)cc(OC)c1OC | -3.3 | 0.0 | -1 | 0 | 6 | 2.2 | .
COc1ccc(-c2cc(-c3ccc(Cl)cc3)n[nH]2)c(O)c1 | -3.2 | 1.1 | 7 | 0 | 24 | -3.8 | .
CCOc1ccc(CN2CCN(S(=O)(=O)c3ccc(NC(C)=O)cc3)CC2)cc1 | 1.2 | 2.3 | -4 | -3 | -2 | 1.4 | -8%
O=c1c2ccccc2nc2n1CCS2 | -2.8 | -2.6 | -7 | 0 | -4 | -0.8 | 13%
CC(/C=N/NC(=O)c1cc(-c2cccn2C)n[nH]1)=C\c1ccccc1 | -0.8 | 5.7 | 17 | -2 | 6 | -0.3 | .
COc1ccc2c(c1)c(C(O)CN1CCC3(CC1)OCCO3)c(C)n2C (centres undefined) | . | -3.9 | . | . | 0 | . | 3%
CCCCOC(=O)c1cc(-c2ccc(/C=N/n3cnnc3)o2)ccc1Cl | -0.1 | -1.2 | 41 | -12 | 15 | -1.6 | -3%
O=C(C1CCN(S(=O)(=O)N2CCC3(CC2)OCCO3)CC1)N1CCN(Cc2ccccc2)CC1 | -1.0 | 4.1 | -5 | -5 | -1 | 0.0 | -4%&1%
CCOc1ccc(NC(=O)CN(C)C(=O)C2CCN(c3ncnc4sc(C)c(C)c34)CC2)cc1OCC | 6.7 | 4.0 | 0 | -5 | -15 | -1.6 | .
C/C(N)=C(/C#N)C(=O)CSc1nc2scc(-c3ccccc3)c2c(=O)n1C | -7.2 | 2.6 | -6 | 46 | 0 | -0.2 | 1%
Cc1ccc(C(=O)NCCCN2CCOCC2)c(Cl)c1 | -2.1 | ? | -2 | -3 | 3 | 2.4 | .
COc1cccc(C(=O)N2N=C(c3ccccc3)CC2(O)C(F)(F)F)c1 (centres undefined) | . | 4.6 | 27 | . | ? | -1.2 | -7%
COc1ccc(C(=O)Oc2cc3c4c(c2)C(C)=CC(C)(C)N4C(=O)C3=O)cc1OC | -6.6 | 1.4 | 4 | . | -6 | 0.7 | 17%
CC1(C)C(c2ccccc2)=NC(c2ccccc2)N1O (centres undefined) | 2.4 | ? | 3 | 0 | 4 | -1.3 | 15%
More entries:
SMILES | LANA-H2B inh | RanGTP-Imp inh | B2AR ag | ALR inh | Calb FLC | HNF4A DNA FP | Vif A3G
CCOC(=O)c1cccc(NS(=O)(=O)c2c(C(=O)N3CCCCCC3)c(C)n(C)c2C)c1 | -0.9 | -0.8 | 5 | -6 | -2 | -0.5 | -6%
Cc1ccc(NC(=O)CN(C)C(=O)/C=C/c2ccc3c(c2)OCO3)cc1 | 6.7 | . | -7 | . | . | 0.8 | .
O=c1[nH][nH]c(-c2ccccc2)c1-c1ccccc1 | . | . | 3 | . | . | -4.0 | -13%
Cc1cc(C)nc(NC(=O)c2cc(-c3ccc(C)s3)nc3ccccc23)c1 | -6.1 | 1.7 | 24 | -3 | 7 | 0.6 | -5%
O=C(/C(=C/O)N=Nc1cccc(C(F)(F)F)c1)c1ccccc1 | 9.8 | 0.1 | 22 | -19 | ? | 1.2 | ?
Cc1ccc(-c2[nH]c(-c3ccc(Cl)cc3)nc2SCC(=O)NCC2CCCO2)cc1 (centres undefined) | 4.0 | -3.2 | -8 | 32 | -4 | 3.8 | .
c1ccc(Cn2c(SCc3nc4ccccc4s3)nnc2-c2ccco2)cc1 | 0.5 | -1.0 | -4 | -5 | -7 | -20 | 21%
CC(=O)Oc1ccc(NC(=O)C2CCCCC2)c(C(=O)O)c1 | 3.8 | . | 0 | 59 | 20 | -4.0 | -12%
O=C(c1cc(-c2cccs2)on1)N1CCCCC1 | -1.0 | -1.4 | -2 | 0 | -11 | -1.6 | 78%
O=C(O)c1ccc(N2N=C(c3ccccc3)CC2c2ccccc2)cc1 (centres undefined) | -3.9 | 5.2 | 2 | 92* | 33 | 0.7 | .
O=C(COC(=O)c1cc(S(=O)(=O)N2CCOCC2)ccc1F)Nc1ccc(Cl)cn1 | 2.1 | . | 1 | 1 | . | 8.0 | 24%
CN(C)c1ccc(NC(=S)c2ccccn2)cc1 | -0.4 | -18 | 2 | 98* | -75 | 3.7 | .
CC(=O)C1=C(C)OC(N)=C(C#N)C1c1cc2cc(C)c(C)cc2nc1Cl (centres undefined) | 2.0 | -5.2 | 3 | 1 | 54 | 1.4 | 10%
CCCCC(CC)C(=O)NCCc1ccc(S(N)(=O)=O)cc1 (centres undefined) | 4.8 | -3.3 | -9 | -10 | -3 | -3.9 | -2%
COc1ccc(C(=O)OCC(=O)NC2CC2)cc1OC | -16 | . | -5 | 1 | . | 2.1 | 2%
CCOc1cc(C(=O)NN=C2CCCC2)cc(OCC)c1OCC | -2.9 | 1.7 | -1 | 34 | -5 | -3.9 | .
Cc1ccc(CN2CCN(Cc3ccccc3)C(CCO)C2)s1 (centres undefined) | 1.4 | ? | 1 | 3 | -7 | -0.7 | 2%
CCn1cc(C(=O)N2CCCC2)c(=O)c2cc(S(=O)(=O)N3CCC(C)CC3)ccc21 | -4.8 | -0.1 | -4 | -3 | -5 | 1.3 | .
CC(=O)NCCSCCNC(C)=O | -1.4 | 3.6 | 3 | 1 | -10 | 0.0 | -5%
O=C(NCCc1ccccc1)C1CCN(C(=O)N2CCOc3ccccc32)CC1 | -1.6 | 3.7 | 1 | -11 | -1 | 3.4 | .
O=C(CN1C(=O)NC2(CCCCC2)C1=O)Nc1cccc(Cl)c1Cl | 1.1 | . | 2 | 0 | . | 1.5 | -11%
COC(=O)C1=C(CS(=O)(=O)c2cc(OC)ccc2OC)NC(=O)NC1c1ccc(O)c(OC)c1 (centres undefined) | 0.8 | -0.6 | 0 | 34 | -1 | -3.4 | 31%
Cc1ccc2[nH]c3c(c2c1)CCN(C)C3 | 0.2 | 0.4 | 14 | -1 | 16 | 1.3 | .
COC(=O)CSc1nnc(CNC(=O)c2cc(OC)cc(OC)c2)n1-c1ccc(F)cc1 | -1.6 | -1.3 | 3 | . | 7 | -1.8 | 9%
Cc1c(C)n(CC(O)CN2CCCCC2)c2ccccc12 (centres undefined) | 2.9 | 0.7 | -2 | 69 | -5 | 1.9 | 1%

Part of the list above, with values under each structure:
Values in the order: LANA-H2B inh, RanGTP-Imp inh, B2AR ag, ALR inh, Calb FLC, HNF4A DNA FP, Vif A3G
> O=C(O)c1ccc(N2N=C(c3ccccc3)CC2c2ccccc2)cc1 (centres undefined)
    -3.9, 5.2, 2, 92*, 33, 0.7, .
> O=C(c1cc(-c2cccs2)on1)N1CCCCC1
    -1.0, -1.4, -2, 0, -11, -1.6, 78%

Rewritten in markdown: entries from further up.
| canonical_smiles | LANA-H2B inh | RanGTP-Imp inh | B2AR ag | ALR inh | Calb FLC | HNF4A DNA FP | Vif A3G |
| --- | --- | --- | --- | --- | --- | --- | --- |
| Cc1ccc2[nH]c3c(c2c1)CCN(C)C3 | 0.2 | 0.4 | 14 | -1 | 16 | 1.3 | . |
| CN(C)c1ccc(NC(=S)c2ccccn2)cc1 | -0.4 | -18 | 2 | 98* | -75 | 3.7 | . |
| CC(=O)NCCSCCNC(C)=O | -1.4 | 3.6 | 3 | 1 | -10 | 0.0 | -5% |
| CCCCC(CC)C(=O)NCCc1ccc(S(N)(=O)=O)cc1 (centres undefined) | 4.8 | -3.3 | -9 | -10 | -3 | -3.9 | -2% |
| Cc1ccc(CN2CCN(Cc3ccccc3)C(CCO)C2)s1 (centres undefined) | 1.4 | ? | 1 | 3 | -7 | -0.7 | 2% |
| Cc1cc(C)nc(NC(=O)c2cc(-c3ccc(C)s3)nc3ccccc23)c1 | -6.1 | 1.7 | 24 | -3 | 7 | 0.6 | -5% |

Following part:
SMILES | LANA-H2B inh | RanGTP-Imp inh | B2AR ag | ALR inh | Calb FLC | HNF4A DNA FP | Vif A3G
S=C(NCc1ccncc1)Nc1ccc(Br)cc1 | -2.7 | 2.3 | -6 | 12 | 0 | 4.5 | .
O=C(CSc1n[nH]c(-c2ccccc2Br)n1)NCCN1C(=O)CSC1=O | -4.0 | -1.9 | 3 | -1 | -3 | -0.7 | .
COc1ccccc1/C=N/NC(=O)CC(=O)NCc1ccccc1 | 3.8 | -1.0 | -3 | -6 | -4 | 1.2 | .
Cc1ccccc1OCCC(=O)OCC(=O)NC1CCS(=O)(=O)C1 (centres undefined) | 0.7 | 0.6 | -8 | 0 | -4 | -1.9 | -13%
CNC(=O)c1cccc(NC(=O)c2cc(-c3ccccc3)nc3c2cnn3C(C)C)c1 | -3.6 | . | 15 | . | . | 2.0 | 2%
Cc1ccc(C(C)C)c(OCCCn2ccnc2C)c1 | 2.8 | -2.3 | 3 | -5 | 11 | 2.0 | .
Cc1ccc(CNC(=O)CN2C(=O)COc3ccc(S(=O)(=O)N4CCC(C)CC4)cc32)o1 | -0.3 | 3.0 | -8 | 8 | -3 | 2.3 | .
COc1ccccc1NCC(O)Cn1c2ccccc2c2ccccc21 (centres undefined) | 7.5 | 0.6 | 2 | 87* | 19 | -1.5 | 3%
O=S(=O)(Nc1cccc(CCc2ccccn2)c1)c1ccc(Cl)cc1 | 4.7 | -1.6 | -11 | -5 | 7 | -0.9 | 30%
CC(=O)Oc1cccc(-c2nc3ccccc3c(=O)o2)c1 | 0.5 | 2.0 | 32 | -2 | -4 | 0.6 | .
CN1C(=O)C2C3c4ccccc4C(c4ccccc43)[C@@H]2C1=O (some centres undefined) | -4.1 | -1.4 | -7 | -2 | 0 | -1.3 | 0%
CCOC1CCc2c(C)nc(N)nc2S1 (centres undefined) | 2.4 | -0.3 | 0 | -8 | 7 | 2.7 | .
COC(=O)c1c(NC(=O)CCCC(=O)O)sc2c1CCCCC2 | 3.3 | 3.0 | 9 | -5 | -1 | -0.1 | -5%
